# NS1 inh: inhibitors of influenza NS1 protein function; Potency, µM (highest dose often 46.1 µM), for inactives: top-dose activity, positive = more growth; S. cerevisiae slowed by influenza A NS1, growth recovery by OD600; hit rate 0.4% among 270,000; active means well fitted rising curve with a large enough effect; inconclusive means small, poorly fitted or top-dose-only effect; inactive means no such curve, though single readings can be large or run the other way; also: nearly all actives have a fitted effect of over 50% in size
#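 S. cerevisiae expressing influenza A NS1, grown in glucose, washed, then diluted 1:100 into pH 6.0 -URA galactose medium with 23 nl compound. Growth recovery read as OD600; NS1-free strain serves as control.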
# Cruzain noTriton: inhibitors of Trypanosoma cruzi cruzain without detergent; Potency, µM, inactives show max response, negative = inhibition, most hits filed as inhibitors; hit rate 2.3% among 200,000; P25779; AID 1476; purified cruzain, Z-FR-AMC fluorescence, no detergent;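 also: plate controls were enzyme without inhibitor for no effect and buffer without enzyme for full effect; nearly all actives have a fitted effect of over 40% in size; top concentration of the series not given in the record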
# Target sequence (P25779 123-467 limits assumed): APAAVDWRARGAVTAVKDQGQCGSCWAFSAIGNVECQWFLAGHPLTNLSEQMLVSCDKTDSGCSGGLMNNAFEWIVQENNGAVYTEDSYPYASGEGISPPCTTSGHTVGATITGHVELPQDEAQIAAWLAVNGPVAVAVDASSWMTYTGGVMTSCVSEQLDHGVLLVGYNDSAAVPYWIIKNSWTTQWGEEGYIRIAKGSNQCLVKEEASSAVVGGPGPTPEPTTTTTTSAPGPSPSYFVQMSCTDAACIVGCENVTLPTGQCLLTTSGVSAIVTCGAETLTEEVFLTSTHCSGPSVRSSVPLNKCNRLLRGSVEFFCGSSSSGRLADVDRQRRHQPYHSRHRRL
#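 Purified cruzain at 1.5 nM, pre-incubated 15 min with compound at room temperature in 100 mM sodium acetate pH 5.5, 5 mM DTT, 0.00005% Triton X-100. Reaction started with 2 uM Z-FR-AMC; AMC fluorescence increase over 60 s gives rate.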
# SARS PLpro yeast: blocks SARS-CoV papain-like protease in a yeast assay. hit rate 0.19% among 330,000. AID 485353. S. cerevisiae expressing SARS-CoV PLpro, growth rescue; control for the full effect not named in the record. Potency, µM (highest dose often 32.9 µM), inactives show top-dose activity, positive = growth rescue; active means well fitted rising curve with a large enough effect; inconclusive means small, poorly fitted or top-dose-only effect; inactive means no such curve, though single readings can be large or run the other way; also: 0% is about no effect; nearly all actives have a fitted effect of over 55% in size; growth read by luminescence after 48 h
# Lassa entry inh: inhibitors of Lassa virus binding or cell entry; Potency, µM (highest dose often 37.9 µM), inactives show at the highest dose activity change, negative = inhibition, usual class: inhibitors; hit rate 1.2% among 300,000; Lassa virus pseudotype entry inhibition, cell reporter; control for the full effect not named in the record; active means well fitted inhibition curve with a large enough effect; inconclusive means small, poorly fitted or top-dose-only effect, or effect the other way; inactive means flat fitted curve, though single readings scatter; tested in HEK293 cells; also: % is scaled to controls: 0 for no effect and ±100 for the full control effect; nearly all actives have a fitted effect of over 50% in size; luciferase read-out
# MARV entry inh: inhibitors of Marburg virus binding or cell entry. Marburg virus pseudotyped entry inhibition, cell reporter; control for the full effect not named in the record; about a third of the inactives were read at about 46 µM. Potency, µM (series often up to 37.8 µM), without a hit: at the highest dose activity change, negative = inhibition, hits mostly inhibitors. hit rate 1.8% among 300,000; active = well fitted inhibition curve with a large enough effect; inconclusive = small, poorly fitted or top-dose-only effect, or effect the other way; inactive = flat fitted curve, though single readings scatter; tested in HEK293 cells; about a fifth of its hits are not listed in these tables; also: % is scaled to controls: 0 for no effect and ±100 for the full control effect; luciferase read-out
# Cruzain inh Det: blocks cruzain activity in presence of Triton detergent. P25779. purified cruzain, Z-FR-AMC fluorescence, 0.01% Triton. Potency, µM, for inactives: max response, negative = inhibition, actives largely listed as inhibitors. hit rate 0.43% among 200,000. AID 1478;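 also: plate controls were neutral wells for no effect and buffer without enzyme for full effect; nearly all actives have a fitted effect of over 40% in size; top concentration of the series not given in the record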
#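 Read-out: AMC fluorescence (360 nm excitation, 450 nm emission), four reads over 2 min, first-to-third difference used. Conditions: cruzain 1.5 nM, Z-FR-AMC 2 uM, pH 5.5 acetate, 5 mM DTT, 0.01% Triton X-100.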
# RE007 growth inh: less growth of the S. pombe RE007 Vpr strain | Potency, µM (highest dose often 92.2 µM), without a hit: top-dose activity change, negative = less growth | AID 651644 | S. pombe RE007 Vpr strain, BacTiter-Glo ATP luminescence, 24 h; control for the full effect not named in the record | hit rate 0.21% among 360,000; active = well fitted falling curve with a large enough effect; inconclusive = small, poorly fitted or top-dose-only effect; inactive = no such curve, though single readings can be large or run the other way;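 also: % is scaled to controls: 0 for no effect and ±100 for the full control effect; nearly all actives have a fitted effect of over 50% in size; the assay follows cell death caused by Vpr and the record does not say whether a fall means rescue or toxicity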
#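 Fission yeast strain RE007, carrying one chromosomally integrated HIV-1 vpr copy, was seeded at OD 0.01 in PMG+AL medium with 23 nL pinned compound. After 24 h at 30 °C and 99% humidity, viability was read by BacTiter-Glo luminescence.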
# StopGo reporter: FMDV 2A StopGo reporter, luciferase signal; human cells with a luciferase reporter of 2A StopGo recoding; control for the full effect not named in the record; Potency, µM (series often up to 57.9 µM), for the others: at the top dose signal change, negative = less light; hit rate 1.2% among 410,000; active = well fitted falling curve with a large enough effect; inconclusive = small, poorly fitted or top-dose-only effect; inactive = no such curve, though single readings can be large or run the other way; tested in HEK293T cells; also: % is scaled to controls: 0 for no effect and ±100 for the full control effect; nearly all actives have a fitted effect of over 45% in size; luciferase light after 4 h
# * = called active by the depositor; ? = inconclusive; / = not tested or not shown; & = joins results of further samples; [ ] = dose if it differs, or a comment. Unless noted, calls follow the shape of the dose curve; as a rule, active = well fitted curve in the direction sought with a large enough effect; inconclusive = small, poorly fitted or top-dose-only effect, or another doubt; inactive = no such curve, though single readings can be large; an effect the other way counts as inactive or inconclusive. Potency is read from the fitted curve at half-maximal effect.
Molecule,NS1 inh,Lassa entry inh,MARV entry inh,Cruzain inh Det,SARS PLpro yeast,Cruzain noTriton,StopGo reporter,RE007 growth inh
CCOC(=O)N1CCN(C(=O)c2ccc3nc(SCc4ccc(F)cc4)n(C)c3c2)CC1,-25%,?,?,1.6%,-11%,?,?,-12%
CC(=O)N1CCN(c2ccc(NCc3ccc(C)cc3)cc2)CC1,12%,-6%,15%,-2.1%,7%,23%,-15%,-5%
Cc1c(C(=O)N(Cc2ccc(F)cc2)C2CCS(=O)(=O)C2)oc2ccccc12 (stereo unspecified),0%,/,/,/,-7%,/,-24%,-1%
N#Cc1ccccc1COC(=O)c1ccc2c(c1)OCCO2,/,?,19%[46.1 µM],/,6%,/,27%,-10%
COc1ccccc1NC(=O)C1=C(C)Nc2nc(SCc3ccccc3F)nn2C1c1cccnc1 (stereo unspecified),/,-1%[46.1 µM],15%[46.1 µM],1.3%,/,-1%,-28%,/
Cc1cccc(C2=NN(c3ccccc3)[C@@H](C(=O)N3CCOC3=O)[C@@H]2c2ccc([N+](=O)[O-])cc2)c1,/,/,/,3.1%,1%,?,-17%,-11%
Cc1[nH]ccc(=O)c1Oc1ncc(C(F)(F)F)cc1Cl,/,1%[46.1 µM],9%[46.1 µM],/,-1%,/,-8%,6%
CCOc1ccccc1NC(=O)c1cnc(N2CCOCC2)c2ccccc12,/,-23%[46.1 µM],/,-8.7%,/,?,-18%,/
CCc1nnc(NC(=O)CSc2nnc(-c3ccoc3C)n2-c2ccccc2)s1,-4%,0%,0%,-1.0%,4%,-4%,-9%,7%
CCOc1ccc(N2C(=O)CC(N3CCN(c4ccc(Cl)cc4)CC3)C2=O)cc1 (stereo unspecified),-35%,/,/,/,-24%,/,-5%,-2%
CCCCOc1ccc(SCCCN2CCOCC2)cc1,/,0%,-5%,/,/,/,-16%,-10%
CCOC(=O)c1cnc(SCc2nc(N)nc(Nc3ccc(C)cc3)n2)nc1N,4%,?,-26%,-5.4%,-11%,?,?,24%
CCOc1cccc(C(=O)N(Cc2ccc(C)o2)C2CCS(=O)(=O)C2)c1 (stereo unspecified),/,0%[46.1 µM],?,-2.1%,/,-14%,-10%,/
Cc1cc(Nc2ccc(F)cc2Cl)n2ncnc2n1,-3%,/,/,0.0%,-2%,1%,-22%,10%
CCCn1c(=N)c(C(=O)NC(C)c2ccccc2)cc2c(=O)n3ccccc3nc21 (stereo unspecified),/,-6%[46.1 µM],/,-4.0%,/,3%,-11%,/
CCOC(=O)c1cc2sccc2n1CC(=O)N1CCc2ccccc21,5%,0%,-9%,5.8%,2%,9%,-7%,6%
Cn1cnnc1SCC(=O)Nc1ccccc1Oc1ccccc1,/,0%[46.1 µM],9%[46.1 µM],/,2%,/,-9%,8%
O=C(NCCC1=CCCCC1)c1cc(COc2c(F)cccc2F)on1,-6%,/,/,/,-1%,/,8%,-5%
O=C(Cn1nc(-c2ccccc2)c2ccccc2c1=O)NCC1CCCO1 (stereo unspecified),-3%,0%,?,7.2%,4%,0%,-13%,-6%
CCC(C(=O)Nc1ccc(C(C)=O)cc1)n1cnc2nc3c(cc2c1=O)CCCC3 (stereo unspecified),/,6%[46.1 µM],/,-5.7%,/,7%,-11%,/
Oc1ccccc1C(Nc1nccs1)c1ccc2cccnc2c1O (stereo unspecified),4%,7.3µM*,12µM*,/,-7%,/,-14%,3%
Oc1c(CN2CCOCC2)cc(CN2CCOCC2)c(O)c1O,/,9%[46.1 µM],0%[46.1 µM],/,/,/,-3%,3%
Cc1ccc(C)c(NC(=O)CSc2n[nH]c(-c3ccccn3)n2)c1,-27%,?,?,/,2%,/,19%,2%
CCn1cc(C(=O)NC2CCc3ccccc32)c(=O)c2ccc(C)nc21 (stereo unspecified),-14%,/,5%,0.9%,-2%,-3%,/,/
COc1ccc2nc(NC(=O)CSc3nccc(C)n3)sc2c1,-13%,8%,-5%,0.2%,7%,4%,?,-4%
Cc1ccccc1NC(=O)CSc1nc2c(c(=O)n(C)c(=O)n2C)n1C,-5%,/,16%[46.1 µM],/,9%,/,-18%,4%
Cc1cc(Br)ccc1NC(=O)c1sc2ncn(Cc3ccccc3Cl)c(=O)c2c1C,/,-7%[46.1 µM],/,2.1%,/,0%,-5%,/
CC(C)(C)OC(=O)NCCCC[C@H](NC(=O)c1nc[nH]c1C(=O)N[C@@H](CCCCNC(=O)OC(C)(C)C)C(=O)OC(C)(C)C)C(=O)OC(C)(C)C,-9%,/,0%,/,0%,/,-15%,5%
COc1ccc(/C=N/NC(=O)c2sccc2OCc2ccc(F)cc2)cc1OC,-12%,-37%,?,-6.7%,-1%,?,-2%,-4%
N#CC1=C(N)Oc2c(oc(CO)cc2=O)C1c1ccccc1[N+](=O)[O-] (stereo unspecified),2%,-2%,-20%[14.2 µM],/,0%,/,-5%,-9%
Cc1ccc(NC(=O)c2ccc3c(c2)N(CC(=O)NC(C)C)C(=O)C(C)(C)O3)cc1,8%,-7%,4%[46.1 µM],/,17%,/,-2%,-14%
COc1ccc(C(CNC(=O)COc2ccc(Cl)c(C)c2)N2CCOCC2)cc1 (stereo unspecified),/,1%[46.1 µM],-2%[46.1 µM],-2.3%,/,1%,-17%,/
Cc1ccc(N2C(=O)c3ccc(C(=O)NCCN4CCOCC4)cc3C2=O)cc1,3%,-8%,-2%,2.3%,-3%,-2%,13%,5%
COc1ccc(S(=O)(=O)N2CCOC23CCN(C(=O)c2ccccc2OC)CC3)cc1,/,3%,6%[46.1 µM],/,?,/,-17%,6%
COc1cc([C@H](Cc2ccccc2)NC(C)=O)oc(=O)c1,-5%,/,/,/,-1%,/,-24%,14%
CCN(CC(=O)NC(C)(C)C)C(=O)c1ccc2c(c1)S(=O)(=O)c1ccccc1C2=O,-5%,/,/,/,1%,/,4%,-7%
Cc1cc(NC(=O)c2ccc([N+](=O)[O-])cc2)n(CCC#N)n1,15%,2%,9%[46.1 µM],/,0%,/,9%,0%
O=C(Nc1c(Cl)cccc1Cl)c1cc(-c2ccc3c(c2)OCO3)on1,/,-6%[46.1 µM],?,-2.6%,/,-4%,30%,/
COCc1cc(C)nc(SC)c1C#N,6%,-8%[46.1 µM],-9%[46.1 µM],/,0%,/,-6%,9%
CC(C)[C@@H](CO)NC(=O)c1ccc2c3n(nc2c1)-c1ccccc1CO3,1%,/,/,/,-5%,/,-10%,-27%
Cn1c(=O)n(C)c2cc(N3CCOCC3)c(NC(=O)c3ccccc3Br)cc21,/,5%[46.1 µM],0%[46.1 µM],-4.6%,/,2%,-10%,/
Cc1[nH]c2ccccc2c1/C=N/Nc1ccccc1[N+](=O)[O-],/,?,27%,/,-1%,/,21%,-25%
Cc1ccc(C(=O)Nc2nc3ccccc3s2)s1,-18%,?,?,-5.3%,3%,?,-48%,-28%
O=C(Nc1ccc(F)cc1)c1cccc(N2C(=O)C3C4C=CC(C4)C3C2=O)c1 (stereo unspecified),9%,14%,-30%,/,6%,/,0%,-12%
Cc1ccccc1-c1cn(-c2ccccc2)c(=S)[nH]1,-2%,-28%,-14%[46.1 µM],/,?,/,0%,-18%
COc1cccc(OC)c1C(=O)Nc1ccc(Cc2ccncc2)cc1,-6%,6%,8%,-0.2%,22%,-3%,-10%,8%
O=C(CCNC(=O)c1ccc(Cl)cc1)NCc1cccc(C(F)(F)F)c1,/,?,0%[46.1 µM],/,5%,/,1%,-5%
CC(C)NC(=O)c1cccc(Br)c1,-1%,2%,1%,3.7%,-1%,-8%,/,-2%
COc1ccc(OC)c(NC(=O)c2c(NC(=O)c3ccco3)sc3c2CCC3)c1,5%,/,/,-0.9%,-3%,-2%,/,/
Cc1cc(C)nc(NS(=O)(=O)c2ccc(NC(=O)CN3C(=O)S/C(=C\c4ccccc4)C3=O)cc2)n1,12%,-16%,?,-6.5%,16%,?,0%,-4%

# Other records follow:
Molecule,NS1 inh,Lassa entry inh,MARV entry inh,Cruzain inh Det,SARS PLpro yeast,Cruzain noTriton,StopGo reporter,RE007 growth inh
CCC(Sc1nc2ccccc2c(=O)[nH]1)C(=O)Nc1ccc(C(C)=O)cc1 (stereo unspecified),1%,20%,18%[46.1 µM],/,1%,/,51%[activator],11%
COc1ccc(-n2c(Cc3cccn3C)nnc2SCC(=O)Nc2cccc(OC)c2)cc1,-3%,-10%,?,-3.5%,-20%,3%,3%,2%
CC(O)CNc1nc2c(c(=O)n(Cc3ccc(Br)cc3)c(=O)n2C)n1C (stereo unspecified),-4%,/,/,/,0%,/,-22%,3%
C=C(C)Cn1c(CCCNC(=O)CC)nc2ccccc21,-1%,6%,-4%,-0.3%,2%,6%,-12%,-10%
COC(=O)C1=CN(c2ccc(F)cc2)C=C(C(=O)OC)C1c1cccc(Br)c1,22%,?,?,/,3%,/,?,-5%
COc1ccc(CCNC(=O)CCCn2nc(C)c3sc4ccccc4c3c2=O)c(OC)c1,/,1%[46.1 µM],7%[46.1 µM],-6.8%,/,-2%,-17%,/
C=CCNC(=O)CCCOc1cc(C)ccc1C,-9%,-19%,4%,1.0%,-7%,9%,2%,6%
CCN(CC)S(=O)(=O)c1cccc(C(=O)Nc2sc3c(c2C#N)CCC(C)C3)c1 (stereo unspecified),/,8%[46.1 µM],14%[46.1 µM],-2.3%,/,-2%,-6%,/
CCc1nn(CC(=O)N2CCN(c3cccc(OC)c3)CC2)c(=O)c2cc3occc3n12,/,-2%[46.1 µM],5%[46.1 µM],-2.5%,/,10%,-11%,/
C=CCNc1oc(-c2ccc(OCC)cc2)nc1C#N,3%,?,11%,-8.4%,-8%,3%,20%,10%
CCN(CC)c1nc2ccccc2n(Cc2cccc(OC)c2)c1=O,-28%,-4%,-24%[46.1 µM],/,-11%,/,0%,-4%
Cc1nn(-c2ccccc2)c2c1C(c1ccccc1)C(C#N)=C(N)O2 (stereo unspecified),-16%,-3%,-14%&-3%,-3.7%,-6%,-2%,-23%,-13%
CCc1cc(=O)oc2cc(OCC(=O)NCCCn3ccnc3)c(Cl)cc12,5%,/,/,/,4%,/,-2%,-5%

# Compound activity (PubChem)
